Source: PubChem BioAssay
AmpC nodet inh = Promiscuous and Specific Inhibitors of AmpC Beta-Lactamase (assay without detergent); AmpC nitrocefin hydrolysis, absorbance 480 nm, no detergent; potencies from a single point are estimates; hit rate 1.8% among 71,000; P00811; Potency, µM (highest dose often 28.7 µM), inactives show at the highest dose activity change, negative = inhibition; active = falling curve, for most hits resting on a single point; inconclusive = weak or doubtful change; inactive = flat or rising curve; also: % of control where 0% means no effect; about half of the hits show no inhibition at the top dose; a quarter of the inactives give rising signals
Target sequence (P00811 whole entry, looked up): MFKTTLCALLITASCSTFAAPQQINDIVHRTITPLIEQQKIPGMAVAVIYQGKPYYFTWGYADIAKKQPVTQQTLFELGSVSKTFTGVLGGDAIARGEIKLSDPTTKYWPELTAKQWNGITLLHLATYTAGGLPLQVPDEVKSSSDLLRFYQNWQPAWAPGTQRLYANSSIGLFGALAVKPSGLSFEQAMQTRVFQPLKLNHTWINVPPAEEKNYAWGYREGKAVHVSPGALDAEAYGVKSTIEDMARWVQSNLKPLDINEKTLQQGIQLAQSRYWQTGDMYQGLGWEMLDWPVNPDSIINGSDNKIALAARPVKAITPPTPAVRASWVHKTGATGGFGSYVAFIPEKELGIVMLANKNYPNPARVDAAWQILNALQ
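Enzyme, pH 7.0 phosphate. Compound titrations were pre-incubated with AmpC for 15 min at room temperature before nitrocefin (stock 800 uM) addition; product formation was recorded at 480 nm every 20 s for 4 min.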
* hit, by the source's call; [ ] = another dose, or the depositor's remark. Potency is read from the fitted curve at half-maximal effect. Not all compounds are listed; count on the stated rates, not on these rows.

Results for O=C(CC1Oc2ccc(Cl)cc2NC1=O)NC1CCCCCC1 (centres undefined) ?
AmpC nodet inh: -10%

What do the screens show for `COc1ccc(-c2nnc3ccc(SCC(=O)N4CCN(c5ccccc5)CC4)nn23)cc1`?
AmpC nodet inh: 122%

What do the screens show for `Cc1ccc(S(=O)(=O)N2CCN(C)CC2)cc1-c1nnc2c3ccccc3c(C)nn12`?
AmpC nodet inh: 98%

What do the screens show for `CCOC(=O)CCc1c(C)nc2cc(-c3ccc(Cl)cc3)[nH]n2c1=O`?
AmpC nodet inh: 0%

What do the screens show for `CCOC(=O)c1ccccc1NC(=O)c1c(F)c(F)c(F)c(F)c1F`?
AmpC nodet inh: 7%

Results for CC(=O)Cc1nsc(NC(=O)c2ccccc2)n1 ?
AmpC nodet inh: -12%

Results for CCCCCOC(=O)c1[nH]c2c(c1C)C(=O)C(C(=O)OC)C(C)C2 (centres undefined) ?
AmpC nodet inh: 35%

Results for O=C(Nc1ccccc1C(=O)N1CCCCCC1)c1cccc(S(=O)(=O)N2CCOCC2)c1 ?
AmpC nodet inh: 37%

What do the screens show for `CC(=O)NC1(c2ccccc2)CCN(c2nc(C)cc(C)n2)CC1`?
AmpC nodet inh: 40%

How did O=C(C1CCC1)N1CCc2cc(S(=O)(=O)NCc3cccnc3)ccc21 do in these assays?
AmpC nodet inh: 2%

Results for CCN1CCN(c2cc(C)c3cc(NC(=O)Cc4ccc(OC)c(OC)c4)ccc3n2)CC1 ?
AmpC nodet inh: 100%

Results for CCOC(=O)N1CCN(CC(=O)N2c3ccccc3CC2C)CC1 (centres undefined) ?
AmpC nodet inh: 20%

How did COC(=O)c1ccccc1NC(=O)CN1CCN(C(=O)c2ccco2)CC1 do in these assays?
AmpC nodet inh: 60%

What do the screens show for `N=C(N)S[C@H]1c2ccccc2-c2cc([N+](=O)[O-])ccc21`?
AmpC nodet inh: -8%[5.75 µM]

What do the screens show for `CCOC(=O)c1oc2cccc(OC(C)=O)c2c1C`?
AmpC nodet inh: 1%

What do the screens show for `CCNc1ncc2nc(-c3ccc(OC)cc3)c(=O)n(C[C@H]3CCCO3)c2n1`?
AmpC nodet inh: 8%

Results for CC(=O)N1CCC2(CC1)CCN(C(=O)Nc1cccc(C#N)c1)CC2 ?
AmpC nodet inh: 27%

How did COc1ccc(-c2nc(CSCC(=O)N3CCN(C(=O)c4ccco4)CC3)c(C)o2)cc1OC do in these assays?
AmpC nodet inh: 117%

Results for CCOC(=O)C1CCN(C(=O)CCNC(=O)Cn2ccc3ccccc3c2=O)CC1 ?
AmpC nodet inh: 8%

Results for CCc1nnc(NC(=O)CCC(=O)N2CCN(Cc3cc(F)ccc3OC)CC2)s1 ?
AmpC nodet inh: 7%

What do the screens show for `COc1ccc(CSc2nncn2N)cc1Br`?
AmpC nodet inh: 4%

Results for CCCCOCCCNC(=O)c1ccc(NC(C)=O)cc1 ?
AmpC nodet inh: 9%

Results for CCC(=O)O[C@H](CC(=O)O)C[N+](C)(C)C ?
AmpC nodet inh: 8%

How did Cc1c(C(=O)NCCCN2CCCC2=O)oc2ccccc12 do in these assays?
AmpC nodet inh: 11%

How did CN(C)c1ncc2nc(CCc3ccccc3)c(=O)n(Cc3cccs3)c2n1 do in these assays?
AmpC nodet inh: 21%

What do the screens show for `Cc1cc(NCCCN2CCOCC2)n2ncc(-c3ccc(Cl)cc3)c2n1`?
AmpC nodet inh: 128%

What do the screens show for `CSc1nc(-c2ccco2)nn1C(=O)c1ccco1`?
AmpC nodet inh: 2.5µM*[single pt active]

What do the screens show for `CCOC(=O)N1CCC(NC(=O)COc2cc(=O)n(C)c3ccccc23)CC1`?
AmpC nodet inh: 58%

How did COC(=O)CNC(=O)c1cn(CC(C)C)c(=O)c2cc(OC)c(OC)cc12 do in these assays?
AmpC nodet inh: 13%

How did CSc1nc(C)cc(OCC(=O)N2CCOCC2)n1 do in these assays?
AmpC nodet inh: -3%

What do the screens show for `O=C(CCN1CCCCCC1)Nc1ccc(F)c(F)c1`?
AmpC nodet inh: -7%

What do the screens show for `CC1CCN(c2nnc(N3CCC(C)CC3)c3ccccc23)CC1`?
AmpC nodet inh: 3.2µM*[single pt active]

What do the screens show for `Cc1ccn2c(-c3csc(NCc4ccco4)n3)c(C)nc2c1`?
AmpC nodet inh: 11%

How did CCCCn1c(O)c(C(C)=NCCCN(CC)CC)c(=O)[nH]c1=O do in these assays?
AmpC nodet inh: -6%

Results for Cc1ccc2c(c1)NC(=O)C(CC(=O)NCCCN1CCN(c3cc(C)ccc3C)CC1)O2 (centres undefined) ?
AmpC nodet inh: 86%

Results for CCOC(=O)c1cc2nc(Nc3ccc(OC)cc3)sc2s1 ?
AmpC nodet inh: 30%

What do the screens show for `CC1CCN(C(=O)CSc2nnc(CNC(=O)COc3ccc(Cl)cc3)o2)CC1`?
AmpC nodet inh: 70%

What do the screens show for `COc1ccc(S(=O)(=O)N2CCCC2C(=O)Nc2nnc(-c3cccnc3)s2)cc1` (centres undefined)?
AmpC nodet inh: 25%

How did CN=C1c2ccccc2CN1c1cccc(C(=O)OC)c1 do in these assays?
AmpC nodet inh: 1%

How did COc1ccccc1N1CCN(C(c2cc3cc(C)ccc3[nH]c2=O)c2nnnn2C2CCCC2)CC1 (centres undefined) do in these assays?
AmpC nodet inh: 88%

What do the screens show for `COCCn1nnnc1C(c1cc2ccc(OC)cc2[nH]c1=O)N1CCN(C2CCCCC2)CC1` (centres undefined)?
AmpC nodet inh: 37%

Results for CCOC(=O)CC(=O)c1cc(OC)c(OC)c(OC)c1 ?
AmpC nodet inh: 7%

Results for COC(=O)C1C(=O)c2c([nH]c(C(=O)OC3CCCCCC3)c2C)CC1C (centres undefined) ?
AmpC nodet inh: 9%

How did C=CCNC(=O)CN(c1ccc(F)c(Cl)c1)S(C)(=O)=O do in these assays?
AmpC nodet inh: 3%

Results for O=C(Nc1ccccc1)N1CC[C@@]2(CCCN(C(=O)c3ccco3)C2)C1 ?
AmpC nodet inh: -9%

What do the screens show for `O=C(Cn1ncc2c(=O)oc3ccccc3c21)NCCN1CCN(c2ccccc2F)CC1`?
AmpC nodet inh: 4µM*[single pt active]

Results for CCOc1ccc(-n2c(SCC(=O)Nc3ccc(OC)cc3)nc3c(c2=O)SCC3)cc1 ?
AmpC nodet inh: 39%

What do the screens show for `O=C(OCC(=O)N1CCOCC1)c1ccc2c(c1)OCCO2`?
AmpC nodet inh: -2%

Results for CC1CCCC(N2CCN(C(=O)c3ccc(F)cc3)CC2)C1 (centres undefined) ?
AmpC nodet inh: 7%

How did Cn1c(=O)c2nc(NCc3ccccc3)cnc2n(C)c1=O do in these assays?
AmpC nodet inh: 8%

How did O=C(CSc1nnc(Cn2c(=O)sc3ccccc32)n1-c1ccccc1)Nc1nccs1 do in these assays?
AmpC nodet inh: 6%

What do the screens show for `COc1ccccc1-c1c(NC(=O)c2ccco2)n(-c2ccccc2)nc(C)c1=O`?
AmpC nodet inh: -2%

Results for C[N+]1(C)CCc2cc3c(cc2[C@@H]1[C@@H]1OC(=O)c2c1ccc1c2OCO1)OCO3 ?
AmpC nodet inh: 7%

Results for CCOC(=O)C(NC(=O)CC(C)C)(Nc1cc(C)on1)C(F)(F)F (centres undefined) ?
AmpC nodet inh: -3%

What do the screens show for `COc1cc2ccc(=O)oc2c(O)c1O`?
AmpC nodet inh: -9%

Results for O=C(O)CN1CCN(Cc2ccccc2)C1=O ?
AmpC nodet inh: -12%

Results for COC(=O)c1sc(NC(=O)c2csc3c2CCCC3)nc1C ?
AmpC nodet inh: 7%

How did CCOC(=O)C1=C(C)OC(N)=C(C#N)C1c1cc(OC)c2c(c1)OCO2 (centres undefined) do in these assays?
AmpC nodet inh: 3%

What do the screens show for `Cc1ccc(C)c(NC(=O)c2ccc3c(c2)N(Cc2ccc(F)cc2)C(=O)CS3=O)c1` (centres undefined)?
AmpC nodet inh: 34%

How did N[C@]1(C(=O)O)CC[C@@H](C(=O)O)C1 do in these assays?
AmpC nodet inh: 4%

How did COCCSc1nnc(NC(=O)Cc2cccs2)s1 do in these assays?
AmpC nodet inh: -14%

How did CCC(C(=O)O)n1c(C(F)(F)F)nc2ccccc21 (centres undefined) do in these assays?
AmpC nodet inh: -15%

What do the screens show for `CCCC(=O)N1CCc2cc(-c3nc(N)sc3C)ccc21`?
AmpC nodet inh: 2%

How did COc1ccc(-n2c(=O)c3ccccc3n(CC(=O)Nc3cc(C)on3)c2=O)cc1OC do in these assays?
AmpC nodet inh: 16%

How did Cc1ccc2c(c1)CC1(CN2C)C(=O)NC(=O)N(c2ccc(C)c(C)c2)C1=O (centres undefined) do in these assays?
AmpC nodet inh: 2%

Results for Cn1c(=O)c2c(SCC(N)=O)nc(CC(C)(C)C)nc2n(C)c1=O ?
AmpC nodet inh: 25%

What do the screens show for `Cc1cnc(C(=O)OCC(=O)N2CCc3ccccc3C2)cn1`?
AmpC nodet inh: 10%

How did Cc1cc(=O)oc2cc(OCC(=O)N3CCCC(C)C3)ccc12 (centres undefined) do in these assays?
AmpC nodet inh: 8%

What do the screens show for `COC(=O)C1CCCN1C(C(=O)NC1CCCCC1)c1ccc(Cl)cc1` (centres undefined)?
AmpC nodet inh: 10%

How did COc1ccc(/C=N/c2nc3ccccc3n2C)cc1OC do in these assays?
AmpC nodet inh: 83%

How did N#Cc1nc(-c2ccccc2Cl)oc1N1CCOCC1 do in these assays?
AmpC nodet inh: 7%

Results for CN(C)c1nc(Oc2ccc(/C=N/O)cc2)nc(N(C)C)n1 ?
AmpC nodet inh: 9%

What do the screens show for `CC1=C(C(=O)OC2CCCCC2)C(c2ccco2)n2ncnc2N1` (centres undefined)?
AmpC nodet inh: 25%

Results for Cc1ccc(C)c(N(C(=O)Cn2nnc(-c3cccs3)n2)C(C(=O)NC2CC2)c2ccc(C)o2)c1 (centres undefined) ?
AmpC nodet inh: 78%

What do the screens show for `Cn1c(-c2ccc(C(C)(C)C)cc2)n[nH]c1=S`?
AmpC nodet inh: -1%

Results for Cn1c(=O)oc2cc(S(=O)(=O)Nc3cccc(C(=O)O)c3)ccc21 ?
AmpC nodet inh: 15%

What do the screens show for `CN1C(=O)C(C2c3ccccc3C(=O)N2Cc2ccccc2)C(=O)N(C)C1=O` (centres undefined)?
AmpC nodet inh: 44%

What do the screens show for `Cc1cnc(C(=O)OCC(=O)Nc2ccc(Cl)cc2)cn1`?
AmpC nodet inh: -9%

Results for CCCCNC(=O)Nc1cnn(CC)c1C(N)=O ?
AmpC nodet inh: -4%

What do the screens show for `Cc1cccc2cc(C#N)c(NCCNS(=O)(=O)c3ccc4c(c3)OCCO4)nc12`?
AmpC nodet inh: 15%

What do the screens show for `COc1ccc(-c2nnnn2-c2ccccc2OC)cc1`?
AmpC nodet inh: 10%

What do the screens show for `COc1ccc(C2C3=C(CCCC3=O)Nc3nc4ccccc4n32)cc1OC` (centres undefined)?
AmpC nodet inh: 23%

How did Cn1c(=O)c2c(nc(CN3CCc4ccccc4C3)n2Cc2ccc(Cl)cc2)n(C)c1=O do in these assays?
AmpC nodet inh: 12%

What do the screens show for `COc1ccc(OC)c(C2C=C(c3ccc(C)c(C)c3)Nc3nnnn32)c1` (centres undefined)?
AmpC nodet inh: 10%

How did O=C(NCc1cccs1)C1CCN(c2ccc(S(=O)(=O)N3CCOCC3)cc2Cl)CC1 do in these assays?
AmpC nodet inh: 40%

What do the screens show for `CCN1CCN(C(=O)c2ccc3c(=O)n(C4CCCC4)c(=S)[nH]c3c2)CC1`?
AmpC nodet inh: 95%

How did COc1cccc(-n2nc(C(=O)N3CCC4(CC3)OCCO4)c3ccccc3c2=O)c1 do in these assays?
AmpC nodet inh: 36%

How did COCC(=O)N(Cc1cc2ccccc2[nH]c1=O)c1ccc(OC)cc1 do in these assays?
AmpC nodet inh: -4%

How did CCN(CC)CCN1C(=O)C(=O)/C(=C(/O)c2c(C)[nH]c(C(=O)OC)c2C)C1c1cccnc1 (centres undefined) do in these assays?
AmpC nodet inh: 0%

Results for Fc1ccc(-c2nnc3ccc(N4CCCC4)nn23)cc1 ?
AmpC nodet inh: 61%

How did COc1ccc(Cl)cc1C(=O)Nc1ccc(NC(=O)c2ccco2)cc1 do in these assays?
AmpC nodet inh: -6%

Results for Cc1[nH]nc(N=CC2=C(O)CC(c3ccco3)CC2=O)c1-c1ccccc1 (centres undefined) ?
AmpC nodet inh: 31%

How did O=C(CSc1nccn1-c1cccc(Cl)c1)NC1CCCC1 do in these assays?
AmpC nodet inh: 16%

Results for CCNC(=O)[C@@H]1O[C@@H](n2cnc3c(N)ncnc32)[C@H](O)[C@H]1O ?
AmpC nodet inh: 13%

Entries shown so far that contain an aryl thioether with sulfur outside any ring, in the order listed:
What do the screens show for `COc1ccc(-c2nnc3ccc(SCC(=O)N4CCN(c5ccccc5)CC4)nn23)cc1`?
AmpC nodet inh: 122%

What do the screens show for `COc1ccc(CSc2nncn2N)cc1Br`?
AmpC nodet inh: 4%

What do the screens show for `CSc1nc(-c2ccco2)nn1C(=O)c1ccco1`?
AmpC nodet inh: 2.5µM*[single pt active]

How did CSc1nc(C)cc(OCC(=O)N2CCOCC2)n1 do in these assays?
AmpC nodet inh: -3%

What do the screens show for `CC1CCN(C(=O)CSc2nnc(CNC(=O)COc3ccc(Cl)cc3)o2)CC1`?
AmpC nodet inh: 70%

Results for CCOc1ccc(-n2c(SCC(=O)Nc3ccc(OC)cc3)nc3c(c2=O)SCC3)cc1 ?
AmpC nodet inh: 39%

How did O=C(CSc1nnc(Cn2c(=O)sc3ccccc32)n1-c1ccccc1)Nc1nccs1 do in these assays?
AmpC nodet inh: 6%

How did COCCSc1nnc(NC(=O)Cc2cccs2)s1 do in these assays?
AmpC nodet inh: -14%

Results for Cn1c(=O)c2c(SCC(N)=O)nc(CC(C)(C)C)nc2n(C)c1=O ?
AmpC nodet inh: 25%

How did O=C(CSc1nccn1-c1cccc(Cl)c1)NC1CCCC1 do in these assays?
AmpC nodet inh: 16%
